# High-throughput results from PubChem.
# Yeast UUG start: yeast start codon fidelity modulation | S. cerevisiae UUG-firefly luciferase reporter, luminescence/redox ratio | activity score, % at 18.7 µM | hit rate 0.13% among 350,000 | AID 602363;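 active means replicate mean at a twofold rise or more, about +100% in these data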;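 further: firefly luciferase made from a UUG start codon reports start codon fidelity; reporter light over untreated wells divided by growth signal over untreated wells; some hits fall short of that in this replicate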
# HIV Env fusion: HIV envelope-mediated fusion inhibition | hit rate 1.1% among 360,000 | inhibition, % at 12.3 µM | HeLa-JRFL Env/CEM21 cell fusion, luciferase | AID 651610;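 active means mean replicate inhibition score of at least 50 and every replicate individually at or above 50; inconclusive means only one of the two criteria met; inactive means mean below 50 and not all replicates reaching 50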;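 further: 0% = plate neutral controls and 100% = maraviroc near 300 nM; one replicate is shown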
# CSC inhib: cancer stem cell inhibition; cancer stem cell-like cells viability, luminescence; inhibition, % at 7.5 µM; hit rate 1.1% among 300,000;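 active means mean at 75% or more and at least half the replicates too; inconclusive means mean and replicates disagree; tested in HMLE shEcad cells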;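 further: 0% = median of negative and 100% = median of positive control wells; the first replicate is given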
# eIF4H inh: inhibitors of RNA binding by human eIF4H | Q15056 | eIF4H fluorescence polarization binding assay | inhibition, % at 35 µM | hit rate 0.94% among 290,000 | AID 2012;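 active means 50% or more with normal probe brightness, or confirmed in later tests; inconclusive means above 50% with abnormal brightness, or retests that disagree; inactive means below 50% or failed in later tests; about a fifth of its hits are not listed in these tables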;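 further: calls also rest on retests at 20 µM and on dose response follow-up; 0% = protein and probe with vehicle and 100% = probe without protein; strong numbers were not always called active; many hits fall short of the cut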
# PABP FP inh: blocks human PABP binding to poly(A) RNA | hit rate 1% among 290,000 | P11940 | AID 2014 | inhibition, % at 35 µM | fluorescence polarization;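 active means 50% or more with normal probe brightness, or confirmed in later tests; inconclusive means above 50% with abnormal brightness, or retests that disagree; inactive means below 50% or failed in later tests; about a fifth of its hits are not listed in these tables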;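 further: calls also rest on retests at 20 µM and on dose response follow-up; controls were probe without protein and protein plus probe with vehicle; some compounds called inactive have numbers as strong as hits; many hits fall short of the cut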
# Target sequence (P11940 whole entry, looked up): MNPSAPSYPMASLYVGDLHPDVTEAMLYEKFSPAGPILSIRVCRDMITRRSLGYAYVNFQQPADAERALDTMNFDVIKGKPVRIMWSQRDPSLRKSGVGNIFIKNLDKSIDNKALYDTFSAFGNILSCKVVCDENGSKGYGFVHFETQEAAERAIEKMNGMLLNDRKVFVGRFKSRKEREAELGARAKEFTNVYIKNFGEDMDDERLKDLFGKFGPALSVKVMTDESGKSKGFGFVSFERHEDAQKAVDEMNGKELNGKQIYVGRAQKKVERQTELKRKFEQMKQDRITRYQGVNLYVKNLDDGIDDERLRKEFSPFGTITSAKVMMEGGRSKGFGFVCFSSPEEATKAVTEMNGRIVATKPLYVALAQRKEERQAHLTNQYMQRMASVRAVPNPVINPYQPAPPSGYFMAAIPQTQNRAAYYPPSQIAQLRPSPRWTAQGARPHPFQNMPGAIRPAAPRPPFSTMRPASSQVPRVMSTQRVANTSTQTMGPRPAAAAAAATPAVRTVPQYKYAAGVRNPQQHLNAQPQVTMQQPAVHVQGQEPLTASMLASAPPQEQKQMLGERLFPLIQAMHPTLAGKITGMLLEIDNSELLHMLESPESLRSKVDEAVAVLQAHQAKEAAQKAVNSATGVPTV
# Rce1 inh: blocks yeast Ras-converting enzyme. Q03530. yeast membranes, quenched prenylated peptide cleavage fluorescence. calls only. hit rate 0.27% among 290,000;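 active means fall in fluorescence gain of 50% or more versus controls, with final raw signal at or below 3038400; inconclusive means same 50% fall but final raw signal above 3038400; inactive means fall in fluorescence gain under 50%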;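 further: plate controls were neutral control wells for no effect and wells lacking membranes for full effect; tested at 10 µM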
# MT1-MMP act inh: inhibitors of human MT1-MMP activation. P50281. HT1080 RFP-PRO-GFP cells, GFP/RFP ratio fluorescence, overnight; percent of plate control window, DMSO zero. GFP/RFP ratio change, % at 20 µM. hit rate 0.061% among 360,000;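 active means GFP/RFP ratio change of at least 30% with cell ATP level not reduced by more than half and red fluorescence within 50% of control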; further: strong numbers were not always called active
#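 Test system: HT1080 RFP-PRO-GFP cells; Benchmarks: DMSO and RFP-L50D-GFP cell wells; Timing: cells overnight before dosing, compound overnight, 37 °C, 5% CO2; Compound: one 20 µM compound dose with 1% DMSO; Read-out: GFP/RFP fluorescence ratio.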
# MT1-MMP act inh RFP: recorded beside MT1-MMP act inh, whose call it bears; RFP signal change, %; measured here: RFP expression control read;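 0 = vehicle wells; hits needed this value within 50% of zero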
# * = called active by the depositor; i = inactive; ? = inconclusive; / = not tested or not shown.
SMILES,Yeast UUG start,HIV Env fusion,CSC inhib,eIF4H inh,PABP FP inh,Rce1 inh,MT1-MMP act inh,MT1-MMP act inh RFP
CC(c1ccccc1)C(CC(=O)O)C(=O)NC1CCCCC1 (configuration not stated),-16.2,16.0,-6.3,-6.8,-4.5,i,0.9,5.9
Cn1c(CSc2nc3ccccc3s2)nnc1SCC(=O)NCCN1CCOCC1,-7.7,/,-4.0,-0.1,1.8,i,5.3,1.7
O=C1c2ccccc2-c2onc3ccc(NCc4ccco4)c1c23,-8.2,/,50.5,?,?,i,77.5,91.5
COc1cccc(CNS(=O)(=O)c2cc3c(cc2C)n(C)c(=O)c(=O)n3C)c1,-6.1,-4.9,/,10.7,-3.1,i,2.1,0.7
CCC(CC)C(=O)NC12CC3CC(CC(C3)C1)C2,-1.6,/,2.8,-3.0,-2.2,i,3.9,6.6
Cc1ccc(NC(=S)Nc2ccc3cn[nH]c3c2)c(C)c1,/,-2.4,0.2,6.1,-2.8,i,0.0,0.3
COc1cc(CCC(=O)OCC(N)=O)cc(OC)c1OC,/,9.9,0.0,11.5,-15.6,i,-1.1,0.3
COc1ccc(NC(=O)Nc2nc(C(N)Cc3ccc(C(F)(F)F)cc3)cs2)cc1 (configuration not stated),-12.4,43.4,/,/,/,/,-2.6,-5.9
CC(=O)c1c(C)[nH]c(C(=O)CSc2nc3ccccc3c(=O)n2CCCO)c1C,-9.4,9.7,-0.9,5.1,-8.4,i,3.9,2.1
CN1C[C@@H]2[C@@H]3C(=O)N(Cc4ccccc4)C(=O)[C@@H]3[C@](Cc3ccccc3)(C1=O)N2C(=O)c1ccc(Cl)cc1,20.5,3.6,/,/,/,/,-10.8,-1.3
O=C1/C(=N\S(=O)(=O)c2cccs2)C([n+]2cccc(Cc3ccccc3)c2)=C([O-])c2ccccc21,-11.7,/,53.6,?,?,i,-13.2,-14.8
C=CCNC(=O)Nc1ccc(F)c(Cl)c1,/,10.4,-7.3,-10.1,-5.6,/,-2.4,0.6
Cc1ccc2c(c1)CC1(CN2C)C(=O)OC2(CCCCC2)OC1=O,-97.7,-21.8,/,9.3,23.5,i,-1.9,8.8
CCCCN1C(=O)NC(c2cccc([N+](=O)[O-])c2)C(C(=O)OCC)=C1C (configuration not stated),-0.4,6.6,-1.5,/,/,i,-2.7,-7.8
COc1ccc(-c2ccc3nccn3c2)cc1,-8.8,-171.3,/,/,/,/,-2.3,1.1
CC1(C)C(=O)N(c2ccccc2F)C(=O)c2ccccc21,4.7,4.8,-2.0,-10.2,13.9,i,-1.9,1.0
O=C(CN1CCN(c2ccccc2)CC1)Nc1cccc(C(F)(F)F)c1,13.5,/,-1.3,-2.7,-0.3,i,5.7,1.6
CS(=O)(=O)c1ccc2nc(NC(=O)Nc3cccc(Cl)c3)sc2c1,/,/,63.0,-8.7,-17.9,i,-22.4,-20.5
O=C(O)c1cccc(Nc2nc(N3CCOCC3)nc(N3CCOCC3)n2)c1,4.7,-5.6,-4.3,-5.3,6.5,i,3.6,4.6
COC(=O)C1C(=O)c2c([nH]c(C(=O)OCCOC(C)C)c2C)CC1C (configuration not stated),/,/,-7.2,-5.1,-3.2,i,/,/
COc1ccc(N2CCN(C3CCCN(C(=O)c4cccc(C)n4)C3)CC2)cc1 (configuration not stated),-7.1,-2.0,-13.4,-0.4,-6.2,i,-1.0,0.1
O=C(COc1ccc(F)cc1)NNC(=O)Cn1ccc(C(F)(F)F)n1,-7.9,/,10.9,/,/,/,-1.3,2.7
CN(C)C(CNC(=O)c1ccc([N+](=O)[O-])cc1Cl)c1ccco1 (configuration not stated),14.0,-6.2,-22.7,0.2,-0.9,i,-1.0,2.5
Cc1nc(NC(=O)CSc2ccc(-c3nc4ccccc4[nH]3)cn2)sc1C,/,/,-8.3,5.8,13.0,i,5.1,5.1
Oc1csc(Cc2nc(-c3ccc(Br)cc3)cs2)n1,/,-60.7,4.3,17.5,21.7,i,-6.7,2.4
Cc1noc(C)c1COc1ccccc1C(=O)N1CCN(S(=O)(=O)c2ccccc2C#N)CC1,-5.6,-13.7,/,/,/,/,-1.8,0.1
NC(=O)CSc1nnc(COc2ccc3ccccc3c2)o1,-7.5,6.6,/,11.6,-16.4,i,2.9,7.3
CCn1c(SCC(=O)c2cc(C)n(CC3CCCO3)c2C)nc2ccccc21 (configuration not stated),-11.1,-7.0,6.4,34.3,35.1,i,5.0,-1.7
Cc1c(CC(C)C)nc(N)c(C#N)c1-c1ccccc1,-13.7,/,27.1,-3.3,-2.9,i,0.4,-3.1
O=C(COc1ncnc2ccccc12)c1ccc2c(c1)OCCO2,/,/,-3.4,-1.5,-3.6,i,-5.0,-2.8
CC1(CCc2ccccc2)NC(=O)N(CC(=O)N2CC(=O)Nc3ccccc32)C1=O (configuration not stated),/,-3.9,-23.7,-1.7,3.3,i,-2.1,0.4
Cn1cnnc1SCC(=O)n1c2ccccc2c2ccccc21,-50.8,/,-11.3,4.8,-5.9,i,1.4,2.8
CN1CCN(c2ccc(NC(=O)c3ccc(Oc4ccccc4)cc3)cc2)CC1,-4.6,23.5,44.9,-13.7,-3.0,i,4.7,-2.1
Cc1ccc(-n2[nH]c(C)c(C=Nc3ccc(C)cn3)c2=O)cc1,-33.1,/,18.2,0.2,6.8,i,4.2,3.8
COc1cccc2c1C(=O)CC1C2CCC2CC(=O)CCC21C (configuration not stated),/,9.3,-5.1,/,/,i,-3.4,-0.4
O=C(NCCOc1ccccc1)c1cccc(S(=O)(=O)NCc2ccccc2)c1,-16.6,9.3,5.7,/,/,i,2.3,-2.9
COc1ccc(CN(C)C(=O)COC(=O)c2ccc(-c3ccccc3)cc2)c(OC)c1OC,-11.6,-1.4,/,/,/,/,2.0,-2.0
CCN1CCN(c2ccc(NC(=O)c3ccc(Br)o3)cc2)CC1,-12.8,-24.6,/,2.5,0.6,i,-1.9,4.2
O=C(COC(=O)CNC(=O)c1ccc(Cl)c([N+](=O)[O-])c1)NCC1CCCO1 (configuration not stated),-15.7,/,-11.4,/,/,/,3.8,5.4
COCn1c(C(O)c2ccccc2)cc2ccccc21 (configuration not stated),3.5,0.4,/,6.5,4.1,i,-1.1,4.4
Cn1cccc1C(=O)OCc1ccc(F)cc1,-10.6,-0.3,-2.7,-3.0,3.8,i,1.6,1.1
C/C(=N/NS(=O)(=O)c1ccc(C(C)C)cc1)c1ccncc1,-15.2,2.7,-3.7,8.6,3.5,i,0.0,-11.1
Cc1ccccc1NS(=O)(=O)c1ccc(N2CCCC2=O)cc1,-13.8,-4.9,64.6,8.7,2.2,/,-0.1,-14.3
CCOc1ccc(NC(=O)CC(NCc2ccccn2)C(=O)O)cc1 (configuration not stated),/,-7.6,5.9,13.1,13.0,i,-3.1,2.5
COc1ccc([N+](=O)[O-])cc1NC(=O)c1cccnc1,22.0,-4.6,-3.1,7.5,7.5,/,1.1,1.3
CNC(=O)CCn1nc(-c2ccc(C)cc2)c2ccccc2c1=O,-7.7,/,-8.0,-3.2,-5.6,i,-3.0,-2.9
O=S(=O)(Nc1ccc(NS(=O)(=O)c2ccccc2)c2ccccc12)c1ccccc1,-27.7,-0.9,/,/,/,/,-3.5,3.6
c1csc(C2Nc3cccc4cccc(c34)N2)c1,4.2,-20.5,9.3,?,?,i,11.0,7.6
CCc1nn(CCCC(=O)N2CCC(C)CC2)c(=O)c2cc3occc3n12,-15.3,6.3,-8.2,-6.8,4.8,i,-3.2,-1.1
CN(C)C(=S)NC(=O)C(c1ccccc1)c1ccccc1,/,9.8,1.3,-9.4,9.1,i,4.5,5.8
CN(Cc1nc2ccccc2n1C)S(C)(=O)=O,-11.2,-53.0,/,5.1,-14.0,i,3.7,7.1
O=C(c1ccc(Cl)cc1)C1CCN(C(=O)NC2CCCCC2)CC1,-14.5,45.2,-16.4,-5.9,11.4,i,1.8,-8.8
CC(C)(C)NC(=O)COC(=O)c1ccc(S(=O)(=O)N2CCCCCC2)cc1,5.0,/,-7.1,-11.6,-9.8,i,-5.3,2.3
O=C(NCCS(=O)(=O)NCc1ccco1)c1ccccc1,-4.6,14.4,-5.7,/,/,i,-3.7,1.6
Cc1ccc(S(=O)(=O)NN(Cc2ccccc2)Cc2ccccc2)cc1,-3.1,-12.1,/,/,/,/,1.5,1.4
Cc1ccc(Cn2nc(C)c(NC(=O)CSc3nc4c(c(C(F)(F)F)n3)CCc3ccccc3-4)c2C)cc1,-1.0,31.4,55.9,-1.5,-4.9,i,-2.6,-5.7
CN(C)CCCNC(NC(=O)c1cccs1)C(Cl)(Cl)Cl (configuration not stated),-12.5,-0.4,0.1,-7.8,-9.5,i,-6.3,-0.9
Cn1cccc1/C=C1\SC(=S)N(NC(=O)c2ccccc2O)C1=O,/,-7.8,5.5,81.6*,61.8*,i,-5.2,0.1
O=C(NC1CC1)C1=C[C@H](c2c[nH]c3ccccc23)C[C@H](OCCCCO)O1,-0.7,-22.6,4.2,-4.5,-7.5,i,-5.8,7.4
O=C(COC(=O)c1cc([N+](=O)[O-])ccc1NCc1ccccc1)NCc1ccccc1Cl,/,-10.6,1.2,8.3,-8.0,i,-2.8,-2.9

# Pulled by compound from the entries so far, 3 records:
SMILES,Yeast UUG start,HIV Env fusion,CSC inhib,eIF4H inh,PABP FP inh,Rce1 inh,MT1-MMP act inh,MT1-MMP act inh RFP
CN(C)CCCNC(NC(=O)c1cccs1)C(Cl)(Cl)Cl (configuration not stated),-12.5,-0.4,0.1,-7.8,-9.5,i,-6.3,-0.9
Cn1cccc1/C=C1\SC(=S)N(NC(=O)c2ccccc2O)C1=O,/,-7.8,5.5,81.6*,61.8*,i,-5.2,0.1
CCc1nn(CCCC(=O)N2CCC(C)CC2)c(=O)c2cc3occc3n12,-15.3,6.3,-8.2,-6.8,4.8,i,-3.2,-1.1

# Remaining list, next part
SMILES,Yeast UUG start,HIV Env fusion,CSC inhib,eIF4H inh,PABP FP inh,Rce1 inh,MT1-MMP act inh,MT1-MMP act inh RFP
CCN1C(=O)CC(c2ccccc2)CC1=O,-14.2,10.0,-4.5,/,/,i,-1.4,4.3
COc1cccc(CNC(=O)c2ccncc2)c1,-6.6,-194.6,3.2,1.3,3.3,i,0.2,0.1
COc1cccc(C(=O)O/N=C(\N)c2ccc(C)cc2)c1,-29.5,-176.3,-9.1,-13.0,-6.6,i,-0.6,1.9
COc1ccc(N2CCN(Cc3nc4c(c(=O)n(C)c(=O)n4C)n3Cc3ccccc3C)CC2)cc1,-14.2,-22.8,/,/,/,/,-10.7,-4.2
O=C1c2ccccc2C(Nc2ccc(Cl)cn2)N1c1ccccn1 (configuration not stated),16.7,/,2.4,-0.4,3.8,i,0.8,5.5
O=C(Cc1ccc(Cl)cc1)c1c[nH]c(C(=O)NCc2cccnc2)c1,/,7.8,12.6,0.6,5.4,i,-2.0,-8.4
COc1ccc(CN2CCCCC2C)cc1C (configuration not stated),-11.8,/,-3.2,-6.5,-3.4,i,0.0,-0.5
O=C(CSc1nc2ncc(Cl)cc2[nH]1)Nc1ccccc1-c1ccccc1,-16.2,11.9,14.5,1.4,2.0,i,-1.3,-9.5
CCc1ccc(NC(=O)C2CC(=O)N=C(N)S2)cc1 (configuration not stated),-18.7,-15.1,-22.0,0.9,-7.1,i,-11.6,-3.5
COc1cccc(NC(=O)[C@H](C)NC(=O)N2CCn3c2nc2ccccc23)c1,-30.0,4.9,-24.6,-2.9,-4.6,i,-0.2,-0.5
CCOC(=O)c1ccc(NC(=O)NCc2ccccc2)cc1,/,-0.9,5.4,2.9,43.4,i,-0.4,-0.7
N#CC1=C(N)C(C#N)(C#N)[C@H](c2ccncc2)[C@H]2CC3(CC=C12)OCCO3,-11.7,5.4,8.1,48.5,40.5,i,-12.8,0.9

# A portion of the library; the hit share may differ from the screen's.
